# D2 PAM: positive allosteric modulators of human D2 dopamine receptor | P14416 | DiscoveRx D2 beta-arrestin cells, luminescence, 90 min; 100% = 57 uM dopamine signal | potentiation, % (concentration not given with the values) | 0.23% of 360,000 active; active = potentiation of 50% or more; inconclusive = 30% to 50%; inactive = 30% or less;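 also: compound concentration not given in the record; tested on top of an EC20 dose of dopamine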
#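 D2 cells co-treated with compound plus 50 nM dopamine (EC20) for 90 min at 37 deg C to detect potentiation. Beta-arrestin recruitment was read as enzyme-fragment luminescence after 1 h at ambient temperature. Full response was set by 57 uM dopamine.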
# Six1-Eya2 blk: blocks human Six1 binding to Eya2; Q15475+O00167; AlphaScreen GST-Six1/His-Eya2 binding, biochemical; stronger effect = lower value; control for the full effect not named in the record; activity change, % (test concentration not listed); 0.56% of 360,000 active; in the data active = activity change below about -65%; inconclusive = about -30% to -65%; inactive = above about -30%; also: % is scaled to controls: 0 for no effect and ±100 for the full control effect; compound concentration not given in the record
# Target sequence (O00167 whole entry, looked up): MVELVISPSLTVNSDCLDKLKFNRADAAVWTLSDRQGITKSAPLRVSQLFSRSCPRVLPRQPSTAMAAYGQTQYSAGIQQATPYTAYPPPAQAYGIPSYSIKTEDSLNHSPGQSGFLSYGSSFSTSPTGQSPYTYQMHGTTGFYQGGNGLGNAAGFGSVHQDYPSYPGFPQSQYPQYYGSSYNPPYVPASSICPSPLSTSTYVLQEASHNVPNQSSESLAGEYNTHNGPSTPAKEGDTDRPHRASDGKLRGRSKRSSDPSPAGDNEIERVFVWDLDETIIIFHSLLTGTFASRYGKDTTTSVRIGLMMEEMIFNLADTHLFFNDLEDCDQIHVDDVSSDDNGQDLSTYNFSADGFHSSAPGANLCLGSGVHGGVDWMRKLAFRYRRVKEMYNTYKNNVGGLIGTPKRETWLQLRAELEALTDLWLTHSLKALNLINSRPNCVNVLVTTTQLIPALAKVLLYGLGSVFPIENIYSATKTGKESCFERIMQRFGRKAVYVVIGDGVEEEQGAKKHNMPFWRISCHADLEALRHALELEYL
# Target sequence (Q15475 whole entry, looked up): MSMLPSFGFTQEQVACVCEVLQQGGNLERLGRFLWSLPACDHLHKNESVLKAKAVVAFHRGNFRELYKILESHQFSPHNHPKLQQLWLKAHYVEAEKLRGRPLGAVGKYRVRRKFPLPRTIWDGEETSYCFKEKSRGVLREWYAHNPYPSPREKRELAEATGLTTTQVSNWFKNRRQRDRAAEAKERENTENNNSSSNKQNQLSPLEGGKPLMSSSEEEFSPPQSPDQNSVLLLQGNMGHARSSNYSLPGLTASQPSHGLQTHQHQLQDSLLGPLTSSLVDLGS
#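 AlphaScreen with GST-Six1 and His-Eya2 (5X mix: 250 nM and 500 nM), glutathione donor and nickel acceptor beads; buffer 50 mM Tris pH 8.0, 300 mM NaCl, 1 mM TCEP; 1 h at 37 C in the dark.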
# TRPML1 agonist: human mucolipin-1 channel agonism; Q9GZU1; TRPML1-expressing cells, Ca2+ dye fluorescence, FDSS; host cell line not named in the record; reference of the full effect not given here; activation, % (test concentration not listed); 0.12% of 410,000 active; in the data active = activation above about 50%; inconclusive = about 30% to 50%; inactive = below about 30%; also: 0% is about no effect; the text of the record puts the active cut at 80%
#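 In this qHTS format, compounds were pin-transferred onto Ca8-dye-loaded TRPML1-DL cells induced with Tet overnight, and intracellular Ca2+ fluorescence was recorded kinetically for 110 s after a 10 s baseline. A subsequent 4uM final 54-4 (EC80) addition followed by a second 110 s read served as the antagonist phase.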
# CtBP-E1A inh: blocks the CtBP interaction with E1A; AlphaScreen GST-E1A/His-CtBP binding, 1536-well; stronger effect = lower value; control for the full effect not named in the record; activity change, % (no concentration beside the values); 0.49% of 340,000 active; in the data active means activity change below about -65%; inconclusive means about -30% to -65%; inactive means above about -30%; also: % is scaled to controls: 0 for no effect and ±100 for the full control effect; compound concentration not given in the record
#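 Steps: dispense buffer (Tris pH 8.0, NaCl 300 mM, TCEP 1 mM, BSA, Tween 20); add 5X protein mix (GST-E1A, His-CtBP, 125 nM each); pin 23 nL compound; 2 h at 37 °C, dark; add 5X beads (50 ug/mL); 1 h; read.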
# TRPML1 inh: inhibitors of human TRPML1 channel | TRPML1-inducible cells, Ca2+ dye fluorescence, FDSS; stronger effect = lower value; inhibition of EC80 agonist-evoked calcium signal | 0.02% of 390,000 active | AID 624415 | activity change, negative = inhibition, % (concentration not given with the values) | Q9GZU1; in the data active means activity change below about -50%; inconclusive means about -30% to -50%; inactive means above about -30%;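 also: stimulus is agonist 54-4 at its EC80 concentration; % is scaled to controls: 0 for no effect and ±100 for the full control effect; compound concentration not given in the record; the text of the record puts the active cut at -80%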
#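 Tet-induced TRPML1-DL cells loaded with Ca8 no-wash calcium dye were read kinetically on FDSS. Compound addition was followed by EC80 agonist 54-4 (4 uM final); inhibition was read over 110 s.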
# TRPV1 PAM: human TRPV1 potentiation; 0.02% of 320,000 active; AID 540277; potentiation, % at 8.33 µM; TRPV1-expressing cells, Fluo-8 calcium influx, capsaicin EC20 potentiation; host cell line not named in the record; control for the full effect not named in the record; active means potentiation above 80%; inconclusive means 30% to 80%; inactive means below 30%; also: 0% is about no effect
#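 Cells expressing TRPV1 were dye-loaded with Fluo-8 and read kinetically: 10 s baseline, 3 min after compound (agonist portion), then 2 min after EC20 capsaicin (allosteric enhancer portion). Calcium-bound dye fluorescence at 480/520 nm.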
# Starred values were filed as active, the others as inactive; ? = inconclusive; . = no result given; & = joins results of further samples.
SMILES,D2 PAM,Six1-Eya2 blk,TRPML1 agonist,CtBP-E1A inh,TRPML1 inh,TRPV1 PAM
C=Cc1ccc(C(=O)N2CCCC(Nc3ccc4c(c3)OCCO4)C2)cc1 (configuration not stated),-10,-17,-0.8,-4,5,-28
Cc1ccc(C(=O)NC(C)c2ccc(C)c(C)c2)s1 (configuration not stated),-2,4,2.9,1,8,.
CCOc1ccc(NC(=O)CN(C)C(=O)c2ccccc2OCCOc2ccccc2)cc1OCC,-1,-9,0.1,-26,-3,5
COc1ccccc1N1CCN(C(=O)c2ccc(N3CCCCS3(=O)=O)cc2)CC1,-14,1,-0.3,0,11,5
Clc1ccccc1C(c1ccccc1)(c1ccccc1)n1ccnc1,23,-9,1.0,-6,5,-11
O=C(NCC(c1ccco1)N1CCCCC1)c1ccc(S(=O)(=O)Nc2ccccc2Cl)cc1 (configuration not stated),-9,-2,0.0,-10,2,.
COc1ccc(CNC(=S)Nc2ccc(F)c(Cl)c2)cc1,-15,0,-0.2,-19,-3,-7
O=C(O)c1cccc2sc3cc(Cl)ccc3c(=O)c12,-1,-13,-0.1,1,-1,-2
Cc1ccc(S(=O)(=O)N(C)C)cc1NC(=O)COC(=O)c1ccc2c(c1)NC(=O)CS2,-6,-21,1.8,-12,19,24
CCC1C=C(c2ccccc2)C=CN=C1N(CC)CC (configuration not stated),-13,2,0.8,-1,6,15
O=C(N/N=C/c1cccnc1)c1cc(-c2ccc(Br)cc2)nc2ccccc12,-4,-14,0.2,-19,4,7
CCc1cc(=O)oc2cc(OCc3ccc(C(=O)O)o3)ccc12,2,-18,0.0,.,-10,1
CC(C)Cn1cnc2c(Sc3c([N+](=O)[O-])ncn3C)nc(N)nc21,-3,-2,0.4,-1,16,.
Cc1ccc(N2CC(NS(=O)(=O)c3cccnc3)CC2=O)cc1 (configuration not stated),-17,2,0.5,0,5,18
Cc1cccc(C)c1NC(=O)NNC(=O)c1cc(C(C)(C)C)nn1Cc1ccccc1,-5,-2,2.3,7,10,-3
CC(=O)Nc1ccc(C(=O)COC(=O)Cc2ccsc2)c(F)c1,-3,10,-0.4,35,1,.
COc1cccc(C(=O)Nc2ccc(C(=O)NCC3CCCO3)cc2)c1 (configuration not stated),2,3,1.4,-3,-7,.
Cc1ccc([N+](=O)[O-])cc1S(=O)(=O)NCCc1c(C)[nH]c2ccccc12,-5,-9,1.2,6,16,11
CCOC(=O)C1CCN(C(=O)c2cc(-c3ccncc3)nc3ccccc23)CC1,-2,11,0.4,.,25,-4
O=c1c2ccccc2c(/C=N/NS(=O)(=O)c2ccccc2)c(O)n1-c1ccccn1,-2,3,14,0,10,-5
CCOC(=O)C1CCCN(C(=O)c2ccc(OC)cc2OC)CC1 (configuration not stated),-4,-3,-0.6,1,.,.
O=C(CCc1nc(-c2ccccc2Cl)no1)Nc1cccnc1,-4,-10,-0.4,-6,11,-25
CCN1C(=O)[C@H]2[C@@H](c3ccc(OC)cc3)N[C@]3(CCCN(Cc4ccccc4)C3=O)[C@H]2C1=O,6,6,-0.1,6,6,.
Cc1ccc(N2CCN(S(=O)(=O)N3CCCCC3)CC2)cc1C,-6,-16,-0.6,-4,4,-27
COc1cccc(-c2csc(N3CCN(C(=O)Nc4ccc(F)cc4)CC3)n2)c1,10,-12,2.5,-18,9,2
COCCn1c(=O)c2c(nc3n2CC(C)CN3Cc2ccccc2)n(C)c1=O (configuration not stated),-12,-1,-0.5,-11,0,-15
Cc1ccc(C)c(NC(=O)CN(C)C(=O)c2cc3ccccc3oc2=O)c1,-4,1,-0.3,6,49,.
CC1(c2nnnn2-c2ccc3c(c2)OCCO3)CCC(=O)N1Cc1cccnc1 (configuration not stated),.,3,-0.4,7,.,.
Cc1ccc2nc(-c3cccc(N)c3)oc2c1,-3,0,-0.4,13,17,-8
COc1ccc(NC(=O)CSc2nc3ccccc3nc2N2CCOCC2)c(OC)c1,-3,-10,1.0&0.0,-6,-10&26,-5
COc1ccc(NC(=O)COC(=O)c2ccc3c(c2)OCO3)c(OC)c1,-9,24,-0.3,-17,-2,.
COCCN1C(=O)N[C@@H](c2cccc(C(F)(F)F)c2)[C@H](C(C)=O)[C@H]1C,-2,2,-0.6,.,-4,.
CCOc1ccc(CC2c3cc(OCC)c(OCC)cc3CCN2C(=O)c2cc(OC)c(OC)c(OC)c2)cc1OCC (configuration not stated),-23,-19,-0.6,8,8,-12
O=C(c1cc2ccccc2o1)N1CCN(C/C=C/c2ccccc2)CC1,-36,-14,3.6,-8,-5,-8
CCOc1ccc(N(C(=O)/C=C/C(=O)Nc2cc(C)on2)C(C(=O)NC2CCCC2)c2ccccc2C)cc1 (configuration not stated),-3,3,4.4,6,7,4
O=C(Cc1ccsc1)NCc1ccccc1F,10,2,-0.5,4,4,-2
Cc1ccc(C2=NOC(C)(c3nnc(Cc4ccccc4)o3)C2)cc1 (configuration not stated),-6,5,-0.1,8,-1,.
CCOC(=O)C1(CCOC)CCN(Cc2nc(C(C)C)cs2)CC1,-9,-3,-0.1,13,-5,-12
NC(=S)N/N=C/c1ccccc1,-12,2,0.2,14,-16,-4
Cc1ccc(C(=O)NCCc2ccccc2)cc1N1CCCC1=O,5,2,-0.2,.,0,1
Cc1cccc(NC(=O)C2CCCN(C(=O)Nc3ccccc3)C2)c1C (configuration not stated),0,-3,-1.0,0,-8,4
O=C(NCc1ccc(Cl)cc1)c1n[nH]c([N+](=O)[O-])c1Cl,-11,-16,0.4,.,-9,8
O=C(NNS(=O)(=O)c1ccc2ccccc2c1)c1cccnc1,7,5,1.1,-6,21,-3
O=C1CC(N2CCN(c3ccccc3Cl)CC2)C(=O)N1c1ccccc1 (configuration not stated),-4,5,0.3,3,0,4
CCOC(=O)c1c(NC(=O)c2ccco2)sc2c1CCCCC2,-9,5,0.3,21,15,.
N#CC1(NC(=O)COC(=O)CCCN=C2NS(=O)(=O)c3ccccc32)CCCCC1,6,11,-0.3,9,-3,-2
COC(=O)[C@@]1(Sc2ccc(C)cc2)CC(=O)N(C(=O)CCc2ccccc2)[C@@H]1c1ccccc1,.,3,0.1,3,.,.
CC(C(=O)O)c1cccc(Oc2ccccc2)c1 (configuration not stated),-6,6,-0.4,3,-5,.
O=S(=O)(NCC(c1cccnc1)N1CCN(c2ccccc2F)CC1)c1cccs1 (configuration not stated),-6,2,-0.2,-2,-1,?
C=CCN(c1ccccc1)S(=O)(=O)c1ccc(Cl)c(C(=O)OCC(=O)N(C)C2CCS(=O)(=O)C2)c1 (configuration not stated),-5,12,3.5,-25,12,8
NC(=Nc1ccccc1)NC(=O)c1nc(Cl)c(N)nc1N,-34,?,1.1,?,12,.
COc1ccc(/C=C/C(=O)NCc2c(C)nn(C)c2C)cc1COc1ccc(Br)cc1,-5,-1,2.9,-4,-10,-8
COCC(C)NS(=O)(=O)c1ccccc1 (configuration not stated),-1,-2,0.3,10,5,15
COc1ccc(CCNC(=O)c2ccc(Br)cc2)cc1,-4,9,-0.4,8,-13,3
Cc1ccccc1NC(=O)C1C2/C=C\CCCCC21 (configuration not stated),-21,2,1.3,9,11,-10
CC(C)c1ccc(/C=C2\SC(=S)N(CCC(=O)NCCCn3ccnc3)C2=O)cc1,-21,-24,-0.2,-24,0,?

# Later entries.
SMILES,D2 PAM,Six1-Eya2 blk,TRPML1 agonist,CtBP-E1A inh,TRPML1 inh,TRPV1 PAM
COc1ccccc1NC(=O)Cc1nn(C)c(=O)c2ccccc12,-7,1,-0.4,2,-12,0
O=C(NC1CCN(S(=O)(=O)c2ccccc2)CC1)c1ccc(F)cc1,-2,5,1.0,-1,-13,-15
COc1ccc(CC(=O)Nc2cc(S(=O)(=O)N3CCCCC3)ccc2N2CCN(C)CC2)cc1,-6,-16,0.2,-5,-2,-2
COc1ccc(C(=O)N/C(=C\c2cn(C)c3ccccc23)C(=O)NCCCN2CCOCC2)cc1,-17,-6,0.4,2,-8,-10
COc1ccc(NC(=O)c2ccc(-c3ccc(C)c4ccccc34)o2)cc1,-5,-10,0.2,-5,-9,?
CCOc1cccc(CNCCO)c1OCc1ccc(Cl)cc1Cl,-24,-3,0.3,-3,-10,-11
Cc1ccc(C(=O)OCC(=O)NCC(F)(F)F)cc1C,-2,4,0.9,13,-6,-11
CN1CCN(NC(=O)c2ccc(Cl)c([N+](=O)[O-])c2)CC1,-9,1,0.0,3,-10,6

# At a glance, some entries already given.
SMILES,D2 PAM,Six1-Eya2 blk,TRPML1 agonist,CtBP-E1A inh,TRPML1 inh,TRPV1 PAM
COc1ccccc1NC(=O)Cc1nn(C)c(=O)c2ccccc12,-7,1,-0.4,2,-12,0
O=C(NC1CCN(S(=O)(=O)c2ccccc2)CC1)c1ccc(F)cc1,-2,5,1.0,-1,-13,-15
COc1ccc(CC(=O)Nc2cc(S(=O)(=O)N3CCCCC3)ccc2N2CCN(C)CC2)cc1,-6,-16,0.2,-5,-2,-2
COc1ccc(C(=O)N/C(=C\c2cn(C)c3ccccc23)C(=O)NCCCN2CCOCC2)cc1,-17,-6,0.4,2,-8,-10
COc1ccc(NC(=O)c2ccc(-c3ccc(C)c4ccccc34)o2)cc1,-5,-10,0.2,-5,-9,?

# Next entries follow.
SMILES,D2 PAM,Six1-Eya2 blk,TRPML1 agonist,CtBP-E1A inh,TRPML1 inh,TRPV1 PAM
CCCN(C(=O)COC(=O)Cn1c(=O)oc2ccccc21)c1c(N)n(Cc2ccccc2)c(=O)[nH]c1=O,-12,0,-0.9,6,0,-1
Cc1nnc(NC(=O)CCSc2ccc(Cl)cc2)s1,1,7,1.3,12,1,11
Cc1ccc(C)c(S(=O)(=O)Nc2ccc(C(N)=O)cc2)c1,-8,-3,0.6,5,-4,4
CC(=O)NC(=S)Nc1ccccc1F,-7,7,-0.7,.,31,14
COc1ccccc1C(=O)NCCC(=O)Nc1ncccc1C,-12,0,0.7,6,-2,25
O=C(COC(=O)/C=C/c1cccc([N+](=O)[O-])c1)NCc1ccco1,1,-3,2.6,.,-4,4
CC(=O)Nc1ccc(NC(=O)CN2CCN(c3ccccn3)CC2)cc1,11,3,-0.3,17,-15,-4
CCSc1nnc(SCC(=O)N2CCN(C(=O)c3ccco3)CC2)s1,-9,1,-0.6,-3,-5,8
CCN(CC)CCCNC(=O)c1cc2c(-c3ccc(Cl)cc3)nn(C)c2s1,0,?,-0.2,?,1,-23
CN1CCN(CCP(=O)(c2ccccc2)c2ccccc2)CC1,-6,4,0.4,2,-14,3
COc1ccc(Cl)cc1NC(=S)N1CCCC1,-7,11,-0.8,.,25,-32
CCn1cc(C2N3CC4(C)CN2CC(C)(C3)C4=O)c2ccccc21 (configuration not stated),-1,-1,-0.4,-1,20,3
Cc1cccc(C)c1NC(=O)C1NC(=O)CC1c1ccccc1 (configuration not stated),1,5,0.6,-6,26,19

# Screens (PubChem)
